Screening results as filed in PubChem.
CtBP-E1A inh: CtBP/E1A binding inhibition; AlphaScreen GST-E1A/His-CtBP binding, 1536-well; active compounds read low; control for the full effect not named in the record; activity change, % (test concentration not listed); 0.49% of 340,000 active; in the data active means activity change below about -65%; inconclusive means about -30% to -65%; inactive means above about -30%; also: % is scaled to controls: 0 for no effect and ±100 for the full control effect
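Steps: dispense buffer (Tris pH 8.0, NaCl 300 mM, TCEP 1 mM, BSA, Tween 20); add 5X protein mix (GST-E1A, His-CtBP, 125 nM each); pin 23 nL compound; 2 h at 37 °C, dark; add 5X beads (50 ug/mL); 1 h; read.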
D2 PAM: human D2 receptor positive allosteric modulation. P14416. DiscoveRx D2 beta-arrestin cells, luminescence, 90 min; 100% = 57 uM dopamine signal. potentiation, % (concentration not given with the values). 0.23% of 360,000 active. AID 624464; active = potentiation of 50% or more; inconclusive = 30% to 50%; inactive = 30% or less;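 also: compound concentration not given in the record; tested on top of an EC20 dose of dopamine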
Target sequence (P14416 whole entry, looked up): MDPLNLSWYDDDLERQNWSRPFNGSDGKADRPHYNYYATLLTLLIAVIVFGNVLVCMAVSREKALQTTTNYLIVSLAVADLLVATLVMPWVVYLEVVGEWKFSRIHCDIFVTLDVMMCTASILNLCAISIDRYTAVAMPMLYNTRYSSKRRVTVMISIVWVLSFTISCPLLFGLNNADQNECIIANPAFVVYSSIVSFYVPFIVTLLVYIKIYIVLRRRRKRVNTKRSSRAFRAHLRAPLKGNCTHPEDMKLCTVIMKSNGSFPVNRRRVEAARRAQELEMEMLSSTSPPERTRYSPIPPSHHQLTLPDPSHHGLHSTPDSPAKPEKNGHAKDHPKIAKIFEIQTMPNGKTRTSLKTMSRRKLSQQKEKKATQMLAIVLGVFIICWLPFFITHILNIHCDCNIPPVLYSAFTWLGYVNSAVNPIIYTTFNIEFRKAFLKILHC
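PathHunter D2 cells, attached overnight at 37 deg C, received compound in DMSO plus dopamine at EC20 (50 nM final) for 90 min at 37 deg C. Beta-arrestin recruitment was read as luminescence after 1 h with detection reagent at ambient temperature.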
TRPML1 ag: activates the human TRPML1 channel; Q9GZU1; TRPML1-expressing cells, Ca2+ dye fluorescence, FDSS; host cell line not named in the record; reference of the full effect not given here; activation, % (concentration not given with the values); 0.12% of 410,000 active; AID 624414; in the data active = activation above about 50%; inconclusive = about 30% to 50%; inactive = below about 30%; also: 0% is about no effect; the text of the record puts the active cut at 80%
Target sequence (Q9GZU1 whole entry, looked up): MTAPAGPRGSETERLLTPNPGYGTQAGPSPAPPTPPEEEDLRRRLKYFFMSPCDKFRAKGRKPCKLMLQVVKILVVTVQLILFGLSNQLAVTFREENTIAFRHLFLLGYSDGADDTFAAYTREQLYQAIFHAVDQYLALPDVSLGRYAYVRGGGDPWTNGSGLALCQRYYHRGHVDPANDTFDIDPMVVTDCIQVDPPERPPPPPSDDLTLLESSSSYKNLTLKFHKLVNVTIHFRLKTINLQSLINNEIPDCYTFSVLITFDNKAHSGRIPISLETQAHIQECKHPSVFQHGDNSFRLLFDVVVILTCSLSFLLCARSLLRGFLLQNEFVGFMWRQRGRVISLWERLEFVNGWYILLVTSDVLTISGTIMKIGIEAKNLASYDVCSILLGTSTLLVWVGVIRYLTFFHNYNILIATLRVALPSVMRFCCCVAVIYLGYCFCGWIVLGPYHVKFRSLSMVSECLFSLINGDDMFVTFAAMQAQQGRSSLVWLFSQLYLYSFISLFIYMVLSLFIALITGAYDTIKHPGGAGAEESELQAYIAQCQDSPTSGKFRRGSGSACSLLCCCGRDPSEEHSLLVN
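TRPML1-DL cells, Tet-induced overnight (~16 h, 37 degrees C), loaded 45-90 min at room temperature with Ca8 no-wash calcium dye plus quencher. FDSS fluorescence: 10 s baseline, compound pin-transfer, 110 s agonist read, then EC80 54-4 (4uM final) and 110 s antagonist read.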
Six1-Eya2 blk: Six1/Eya2 interaction inhibition; Q15475+O00167; 0.56% of 360,000 active; AID 651725; AlphaScreen GST-Six1/His-Eya2 binding, biochemical; active compounds read low; control for the full effect not named in the record; activity change, % (concentration not given with the values); in the data active = activity change below about -65%; inconclusive = about -30% to -65%; inactive = above about -30%; also: % is scaled to controls: 0 for no effect and ±100 for the full control effect
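AlphaScreen with GST-Six1 and His-Eya2 (5X mix: 250 nM and 500 nM), glutathione donor and nickel acceptor beads; buffer 50 mM Tris pH 8.0, 300 mM NaCl, 1 mM TCEP; 1 h at 37 C in the dark.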
TRPML1 inh: human mucolipin-1 channel inhibition; TRPML1-inducible cells, Ca2+ dye fluorescence, FDSS; active compounds read low; inhibition of EC80 agonist-evoked calcium signal; 0.02% of 390,000 active; AID 624415; activity change, negative = inhibition, % (concentration not given with the values); Q9GZU1; in the data active means activity change below about -50%; inconclusive means about -30% to -50%; inactive means above about -30%;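 also: stimulus is agonist 54-4 at its EC80 concentration; % is scaled to controls: 0 for no effect and ±100 for the full control effect; the text of the record puts the active cut at -80%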
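TRPML1-DL cells, Tet-induced overnight (~16 h, 37 °C) at 1,500 cells/well, were loaded with Ca8 no-wash dye plus quencher for 45-90 min at room temperature. Compounds were pinned during FDSS kinetic reading; agonist 54-4 at EC80 (4 uM final) then added.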
TRPV1 potentiator: human TRPV1 potentiation | Q8NER1 | TRPV1-expressing cells, Fluo-8 calcium influx, capsaicin EC20 potentiation; host cell line not named in the record; control for the full effect not named in the record | potentiation, % at 8.33 µM | 0.02% of 320,000 active; active means potentiation above 80%; inconclusive means 30% to 80%; inactive means below 30%; also: 0% is about no effect
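TRPV1-expressing cells were cultured overnight at 35.5C and loaded with Fluo-8 calcium dye for 40 to 90 min at room temperature. After a 10 s baseline, compound was added and calcium influx was read kinetically for 3 min (ex 480/em 520 nm).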
* = called active by the depositor; u = inconclusive; x = not tested or not shown; & = joins results of further samples.

Second line of a record – CtBP-E1A inh, D2 PAM, TRPML1 ag, Six1-Eya2 blk, TRPML1 inh, TRPV1 potentiator
- CCCCCCCCSc1nnc(-c2ccc(OC)cc2)o1
  2, 2, 1.4, 14, -18, 3
- CCCS(=O)(=O)N1CCC(C(=O)N2CCCC2)CC1
  2, 3, 0.3, 8, 1, -2
- Cc1ccc(S(=O)(=O)c2cc3cc(Br)ccc3oc2=O)cc1
  21, -9, 1.2, 12, 3, -10
- O=C(c1cc(F)ccc1F)C1CCCN(C(=O)c2ccc(F)cc2Cl)C1 (stereo unspecified)
  1, -5, 2.4, 7, -10, -12
- O=C(Nc1ccccc1)OCCNC1CCCCC1
  12, -21, 1.2, 8, 32, x
- Cn1c(=O)n(C)c2cc(NC(=O)c3ccc(F)cc3)c(Br)cc21
  0, 1, 1.2, -3, 1, -6
- CCc1oc2ccccc2c1C(=O)c1cc(Br)c(O)c(Br)c1
  6, 3, 5.0, -3, 7, 10&-5
- CCN(N=Nc1cccc([N+](=O)[O-])c1)c1cccc([N+](=O)[O-])c1
  u, -3, 1.4, u, 10, -6
- O=C(C1CCC(=O)N(C2CC2)C1)N1CCC(Oc2cccc(C(F)(F)F)c2)CC1 (stereo unspecified)
  6, 0, -0.2, 3, 24, -1
- COC(=O)C(C)Oc1ccc(Cl)c(CN2OCC(C)(C)C2=O)c1 (stereo unspecified)
  1, 5, 0.5, 10, -22, x
- CCCNC(=O)CSc1nnc(-c2ccc(F)cc2)o1
  -2, -8, 0.8, 10, 6, -6
- COc1cc(Cl)ccc1NC(=S)N(CCN(C)C)C(C)c1ccncc1 (stereo unspecified)
  x, -18, -0.7, -20, -13, -11
- CCOC(=O)C1CCN(S(=O)(=O)c2ccc3c(c2)NC(=O)C(C)S3)CC1 (stereo unspecified)
  -2, -8, -0.7, 14, -5, -8
- O=C(NC1CCCCC1)C(c1cccs1)N(C(=O)c1ccco1)c1ccc2c(c1)OCCO2 (stereo unspecified)
  -3, -25, 1.2, -1, -5, -4
- O=C(CCNC(=O)c1ccco1)Nc1ccccc1
  0, -7, 0.5, 2, -11, 5
- CCOc1ccc(/C=C2/SC(=S)N(n3c(C)ccc3C)C2=O)cc1
  -21, -7, 3.4, -24, -21, 2
- CC(c1ccccc1F)n1cc(C(=O)NCCCn2ccnc2)nn1 (stereo unspecified)
  10, -1, -0.4, 6, 3, -1
- CCCCCC(=O)Nc1cccc(C2=NOC3(C2)C[C@@H](C(N)=O)N(C(=O)c2cc([N+](=O)[O-])cc([N+](=O)[O-])c2)C3)c1 (stereo partly specified)
  -1, 23, -0.8, -8, -5, -13
- Cc1cccc(C)c1N1CCN(C(=O)Cn2cncn2)CC1
  -7, -4, 0.1, 0, 5, -8
- COc1ccccc1NC(=O)C1CCCN(c2nc(C)cc(C)n2)C1 (stereo unspecified)
  0, 8, 0.4, -3, 10, -1
- CC(C)N(C(=O)/C=C/c1cccc([N+](=O)[O-])c1)C(C)C
  x, -9, 0.5, 9, 7, -13
- O=C(/C=C/c1cccc(O)c1)c1cccnc1
  3, -5, 1.0, 7, 17, 3
- CC(NC(=O)c1cccc(S(=O)(=O)N(C)C)c1)c1nc2ccccc2[nH]1 (stereo unspecified)
  0, -12, 0.7, -6, -16, -5
- C/C(=N\NC(=O)c1cccc(Br)c1)c1ccccn1
  -3, -10, 0.2, -90*, -4, 8
- O=C(CCCCCn1c(=S)[nH]c2ccc(N3CCOCC3)cc2c1=O)NCc1ccccc1
  5, 0, -0.5, 0, 6, -3
- Cc1c(C(=O)NC2CCS(=O)(=O)C2)oc2ccccc12 (stereo unspecified)
  0, -1, -1.3, -17, 6, -4
- CCOC(=O)c1ccc(-n2ccnc2)c(NC(=O)c2ccc(C(C)(C)C)cc2)c1
  -2, -17, -0.3, 0, 10, 16
- O=C1NC(=S)CN1c1ccccc1
  x, -23, 0.8, 0, 7, 23
- COc1ccc(Br)cc1/C=N/Nc1ccccn1
  -15, -5, 0.5, -1, 0, -10
- COc1ccc(CNC(=O)c2cccc(S(=O)(=O)N3CCN(c4ccc(F)cc4)CC3)c2)cc1
  -7, -1, 0.3, 1, -19, 22
- S=c1nc(Cc2ccccc2)[nH]c2ccccc12
  9, 0, 2.5, -7, -23, -8
- C=CCN1C(=O)c2ccc(C(=O)OCC(=O)N(CC)c3c(N)n(Cc4ccccc4)c(=O)[nH]c3=O)cc2C1=O
  -1, -3, 0.1, -1, -13, x
- O=c1[nH]c2ccc(S(=O)(=O)N3CCCCC3)cc2s1
  1, 1, 0.0, -2, 6, -15
- CCCCNC(=O)c1ccc2c(c1)ncn2C1CCCCC1
  9, -4, 0.1, 4, 10, -30
- S=c1[nH]nc(COc2ccccc2)n1/N=C/c1cccc(Cl)c1Cl
  x, -10, 1.5, -8, 4, 14
- Cc1onc(-c2ccccc2)c1C(=O)Nc1ccc(S(=O)(=O)NC2=NCCCCC2)cc1
  -1, -11, 0.4, 6, -11, -1
- COc1ccc(-c2[nH]ncc2-c2cscn2)c(O)c1
  -1, -8, 0.3, -2, -18, 5
- COc1cc(NC(=O)CN2C(=O)NC(C)(CC(C)C)C2=O)cc(OC)c1 (stereo unspecified)
  3, -1, 0.2, 2, 7, -1
- Cc1ccc(S(=O)(=O)N/N=c2\sc3ccccc3n2C)cc1
  8, 15, -0.4, 12, 0, -7
- CCN1CCN(c2c(Cl)cccc2NC(=O)c2ccc(Br)o2)CC1
  -10, -42, 0.1, -12, 15, 7
- Cc1nc2ccc(NC(=O)N3CCCCC3)cc2s1
  6, 10, -0.7, 1, 2, 1
- COc1ccccc1CC(=O)N1CCN(c2ccccc2)CC1
  -12, -4, -0.3, 0, -6, 5
- NC(=O)C1CCCN1S(=O)(=O)c1ccc2ccccc2c1 (stereo unspecified)
  -11, -8, 0.2, -3, -19, 11
- COC(=O)c1ccc(C)c(NC(=O)c2ccc(Cn3cc([N+](=O)[O-])cn3)o2)c1
  8, -10, 0.0, 3, 15, 8
- COc1ccc(C(=O)COC(=O)Cn2[nH]c(=O)c3ccccc3c2=O)c(OC)c1
  0, -9, 2.6, 2, 4, -17

Quoted at random: 4 records from the list, in no set order.
Second line of a record – CtBP-E1A inh, D2 PAM, TRPML1 ag, Six1-Eya2 blk, TRPML1 inh, TRPV1 potentiator
- COc1cc(NC(=O)CN2C(=O)NC(C)(CC(C)C)C2=O)cc(OC)c1 (stereo unspecified)
  3, -1, 0.2, 2, 7, -1
- COc1ccccc1CC(=O)N1CCN(c2ccccc2)CC1
  -12, -4, -0.3, 0, -6, 5
- O=C(Nc1ccccc1)OCCNC1CCCCC1
  12, -21, 1.2, 8, 32, x
- COc1ccc(-c2[nH]ncc2-c2cscn2)c(O)c1
  -1, -8, 0.3, -2, -18, 5

(further entries)
Second line of a record – CtBP-E1A inh, D2 PAM, TRPML1 ag, Six1-Eya2 blk, TRPML1 inh, TRPV1 potentiator
- Cc1ccc(C2CC(=O)C=C(NCc3ccccc3)C2)cc1 (stereo unspecified)
  -1, -7, -0.5, 8, 8, -16
- Cc1ccccc1CCNC(=O)C1CCC(=O)N(Cc2ccc(Cl)cc2)C1 (stereo unspecified)
  11, 0, 0.1, -1, -6, -11
- CCOC(=O)c1cnc(SC2CC(=O)N(c3ccccc3)C2=O)nc1N (stereo unspecified)
  0, -16, 0.6, -1, 6, 7
- Cc1cccc(NC(=O)C(c2ccccc2Cl)N2CCOCC2)c1 (stereo unspecified)
  -25, 0, -0.5, -16, 8, -13
- CCN(CC)CCN1C(=O)C(=O)/C(=C(/O)c2ccc(OC)cc2)C1c1ccco1 (stereo unspecified)
  -3, -12, 1.1, -5, 4, -4
- COc1cccc(NC(=O)CN(C)C(=O)CCC(=O)c2cc(C)sc2C)c1
  -77*, -10, 3.1, 1, 2, -13
- CCCN(CC(=O)Nc1ccccc1OC)C(=O)c1ccc2ncsc2c1
  -6, 0, 1.5, 2, -24, 6
- Cc1cc(NC(=O)COC(=O)CSCc2ccc(Cl)c(Cl)c2)no1
  1, -10, 2.6, 4, 19, 1
- O=C(NC(=S)NCc1ccc(-c2nc3ccccc3s2)cc1)c1ccco1
  -5, -13, 1.1, 3, -9, 2
- O=C(COc1cccc2cccnc12)Nc1ccccc1
  1, -7, -0.3, 8, -16, 16
- COc1ccccc1-c1nnc(SC(C)C(=O)O)n1-c1ccccc1 (stereo unspecified)
  x, -29, 2.9, 3, -15, 3
- O=C(COC(=O)c1ccco1)Nc1nc2c(F)c(F)c(F)cc2s1
  0, 0, 0.3, -8, 12, u
- CCOc1ccc(Nc2nc(N)c3ccccc3n2)cc1
  0, -3, 0.0, -12, 19, -1
- Fc1ccc(C2CC(c3ccc(F)cc3)n3ncnc3N2)cc1 (stereo unspecified)
  0, -1, 0.0, 0, -5, -17
- O=C(Nc1ccon1)c1ccc(S(=O)(=O)N2CCOCC2)cc1
  x, -12, -0.2, 4, -5, -1
- Cc1ccc(NC(=O)Cn2c([N+](=O)[O-])cnc2C)cc1Cl
  8, -10, 0.5, 1, 0, 4
- CN(C)C(=O)CN1c2cccc3cccc(c23)S1(=O)=O
  4, 8, x, 0, x, 8
- O=C(O)c1cccc(NS(=O)(=O)c2ccc(Oc3ccc(S(=O)(=O)Nc4cccc(C(=O)O)c4)cc3)cc2)c1
  1, -2, -1.0, 201, 4, x
- NC(=O)C1=C[C@@H](c2csc3ccccc23)C[C@@H](OCCCCO)O1
  6, -5, 0.6, 1, 4, -19
- CN(C(=O)CSc1nnc(-c2c[nH]c3ccccc23)n1C1CC1)C1CCS(=O)(=O)C1 (stereo unspecified)
  2, -1, 0.6, 7, -13, 6
- c1cnn(-c2cc(N3CCOCC3)ncn2)c1
  -11, -4, 1.4, -2, -6, -17
- COc1ccc(C(=O)OCCNC(=O)c2ccncc2)cc1OC
  -9, 4, -0.1, -1, 32, -11
- N#CCc1nnc2n1-c1ccccc1CCC2
  5, -2, 0.7, 3, -5, 4
- O=C(Nc1ccccc1N1CCCCC1)c1cccc(Cl)c1
  31, -1, 0.2, 2, 3, 5
- COc1ccc(C2=C/C(=C\c3cccc(OC(C)=O)c3)C(=O)O2)cc1
  -12, -2, 21, 3, -1, 24
- CCS(=O)(=O)n1nc(-c2ccc(Cl)cc2)nc1N
  -1, 2, -0.9, 11, -1, -2
- O=C(COC(=O)CCc1c[nH]c2ccccc12)NCc1ccccc1
  6, -19, 0.4, -3, 7, 9
- CCC(C)C(NC(=O)C(C)NC(=O)CNC(=O)OC(C)(C)C)C(N)=O (stereo unspecified)
  -16, -1, -0.1, 0, -4, 12
- O=C(COC(=O)Cc1c(F)cccc1Cl)Nc1nnc(-c2ccccc2)o1
  -4, 8, 1.1, -19, 42, 6
- CCN(CC)CCCN(C(=O)c1ccc(Br)cc1)c1nc(-c2ccc(OC)cc2)cs1
  -29, -26, 0.8, u, 51, 4
- CCc1ccc(N2CC(C(=O)Nc3ccc(OC)c(S(=O)(=O)N4CCOCC4)c3)CC2=O)cc1 (stereo unspecified)
  -2, -6, -0.5, -6, 8, x
- O=S(=O)(NCCSCc1ccc(Cl)cc1Cl)c1ccc2c(c1)OCCO2
  3, -38, 4.3, -1, -3, 12
- CCN(CC)CCC(O)(c1ccc2c(c1)OCO2)c1cc(OC)c(OC)c(OC)c1 (stereo unspecified)
  4, -17, -0.6, -3, 8, x
- Cc1ccc(-n2c(C)csc2=N)cc1
  -12, -10, 0.2, -13, -18, -17
